# Assay outcomes deposited in PubChem BioAssay by National Center for Advancing Translational Sciences (NCATS).
# TsaE inh – inhibitors of E. coli YjeE (TsaE) | Potency, µM | purified YjeE, fluorescence polarisation of a bound ADP probe | AID 605 | 71,000 compounds, 0.05% hits | P0AF67; active = well fitted falling curve; inconclusive = weaker or top-dose-only fall, or a rising curve; inactive = flat or poorly fitted curve;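 note: top concentration of the series not given in the record; excess ADP was the control for the full effect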
#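 Purified YjeE (10 uM) with BODIPY Texas Red-labeled ADP probe (2 uM); compounds pin-transferred, 15 min at room temperature. Binding inhibition read as decreased fluorescence polarization; ADP titration as control.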
# Bst PK mod – modulators of Bacillus stearothermophilus pyruvate kinase; Potency, µM; 51,000 compounds, 1.2% hits; partly purified Bacillus stearothermophilus pyruvate kinase, luminescence ATP production; ribose 5-phosphate activator present at AC10; in the data active means potency below about 11 µM; inconclusive means mostly about 12 µM to 25 µM; inactive means weaker than that;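 the screen sought inhibitors and activators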;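 note: potency is the fitted concentration of half-maximal effect; scaled between full activation by ribose 5 phosphate and full inhibition by luteolin; about four in five hits inhibit and the cells do not say which; series up to 57 µM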
# An asterisk follows results filed as active; i = inactive; ? = inconclusive; . = no result given.
TsaE inh	Bst PK mod	compound
i	>57	CCOC(=O)c1cc(OCC(=O)NC(C)C(C)C)cc(C(=O)OCC)c1 (configuration not stated)
i	>57	CCN(CC(=O)Nc1c(C(=O)OC)[nH]c2ccc(Cl)cc12)c1ccc2c(c1)OCO2
i	.	CCOc1ccc2[nH]c(=O)c(CN(CCO)C(=O)c3ccc(F)cc3)cc2c1
i	.	CC1(C)C(=O)C(c2ccccc2)=C2CN3C(=O)N(CCc4ccccc4)C(=O)C3(Cc3ccccc3)C=C21 (configuration not stated)
i	>57	CCOC(=O)CCCCC(=O)c1[nH]c(=O)[nH]c1CSc1nc(C)cc(=O)[nH]1
i	.	COC(=O)C(C)Sc1nnc2n(-c3cccc(C)c3)c(=O)c3c4c(sc3n12)CCCC4 (configuration not stated)
.	>26	Cn1nnnc1SCC1=C(C(=O)O)N2C(=O)[C@@H](NC(=O)[C@H](O)c3ccccc3)[C@H]2SC1
i	.	O=c1cnc2cnc(Oc3ccccc3)nc2n1C1CC1
i	>57	Cc1cc(=O)oc(C)c1C(=O)Nc1cnc2ccccc2c1
i	>57	O=C(NCc1n[nH]c(=S)n1-c1ccccc1)c1ccco1
i	.	CC1=C(C(=O)OCc2ccccc2)C(c2ccc([N+](=O)[O-])cc2)NC(=O)N1CCCCCC(=O)O (configuration not stated)
i	>57	CCCCCn1c(SCc2ccncc2)nc2cc(C(=O)NCc3ccco3)ccc2c1=O
i	>57	CN(C/C(O)=C(\C#N)c1ccccc1)C1CCCCC1
i	>57	CCOC(=O)c1c(C)c(C(=O)NC2CCCCC2)c(C)n1CC
i	>57	COCCn1c(=S)[nH]c2ccc(N(C)C)cc2c1=O
i	>57	Cc1cc(C)n2nc(SC(C)C(=O)NCc3ccco3)nc2n1 (configuration not stated)
.	>11	C=CCn1c(SCC(=O)c2ccccc2)nnc1-c1ccc2c(c1)OCO2
i	>57	O=C1CCCc2c1cc(C(=O)NC1CCSC1=O)c(=O)n2-c1ccccc1 (configuration not stated)
i	.	CC(=O)Nc1cc(-c2ccccc2)ccc1O
i	>57	O=C(CN1CCN(S(=O)(=O)/C=C/c2ccccc2)CC1)NC(=O)NCc1ccco1
i	>57	CCOC(=O)N1CCN(C(=O)c2ccc(-n3c(=S)[nH]c4ccccc4c3=O)cc2)CC1
i	>57	Cn1cnnc1SCCn1c(N2CCCCC2)nc2c1c(=O)[nH]c(=O)n2C
i	>57	COc1cc(-c2cc(C(=O)O)c3c(OC)c(OC)c(OC)cc3n2)ccc1O
i	?	Nn1c(COc2cccc(Br)c2)nnc1SCC(=O)N1CCc2ccccc2C1
i	>57	Cc1cccc(OCC(=O)Nc2ccc3c(c2)nc(CCN2CCN(C)CC2)n3C)c1
i	.	COc1ccc(Cl)cc1NC(=O)c1nc2nc(C)cc(C(F)F)n2n1
i	.	COC(=O)N1CCC2(CCN(Cc3ccccc3OC)CC2)CC1
i	>57	O=C(CCNS(=O)(=O)c1cccs1)N1CCc2ccccc2C1
.	>26	c1ccc(OCc2nn3c(C4CCCCC4)nnc3s2)cc1
i	>57	N#CC1=C(N)C(C#N)(C#N)C(c2cccnc2)C2CCCC=C12 (configuration not stated)

# Of the compounds above, two have fluorine.
TsaE inh	Bst PK mod	compound
i	.	CCOc1ccc2[nH]c(=O)c(CN(CCO)C(=O)c3ccc(F)cc3)cc2c1
i	.	COc1ccc(Cl)cc1NC(=O)c1nc2nc(C)cc(C(F)F)n2n1

# Next part.
TsaE inh	Bst PK mod	compound
i	>57	COc1ccc(CC(NC(C)=O)C(=O)NC2CCN(c3nnnn3-c3ccccc3)CC2)cc1 (configuration not stated)
i	.	O=C(Nn1cnnc1)c1cc2c(s1)CCCC2
i	>57	COCC(=O)N(CCc1ccc(OC)cc1)Cc1nc2ccccc2c(=O)[nH]1
i	.	CCOC(=O)CN1C(=O)C(O)(C2CCc3ccccc3C2=O)c2ccccc21 (configuration not stated)
i	>57	O=C(CSc1nnnn1-c1ccccc1)Nc1ccc(N2CCOCC2)c(Cl)c1
i	.	CC1CN(c2ncnc3c2oc2ccccc23)CC(C)O1 (configuration not stated)
i	.	CC(=O)c1cccc(NC(=O)NC2CCCCC2)c1
i	>57	CSCC[C@H](NC(=O)OC(C)(C)C)c1nnc(SCC(=O)N(C)C)o1
i	>57	Cc1ccc(-n2c(SCc3ccc(C#N)cc3)nnc2-c2ccccn2)cc1
i	>57	Cc1nn(-c2nnc(C)c(=O)[nH]2)c(C)c1SCC(=O)Nc1ccc(F)cc1
i	.	NC/C(=N\O)c1ccc(Cl)cc1Cl
i	.	O=C(O)c1cc(C(=O)C(=O)c2cc(C(=O)O)c(O)c3ccccc23)c2ccccc2c1O
i	>57	CCn1c(SCC(=O)N2CCN(S(=O)(=O)c3ccccc3)CC2)nnc1-c1cccs1
i	>57	COc1ccccc1NC(=O)CCc1c(C)[nH]c(=O)c(C#N)c1C
i	.	CN(C)CCCn1c2ccccc2c2cnccc21
i	.	O=C(c1csnn1)N1CCC2(CC1)CCN(c1ccccn1)CC2
i	.	C[C@@H](N=C(N)N)C(=O)O
i	>57	Cc1nn(-c2ccc(Cl)cc2)c2sc(C(=O)N3CCN(c4ccccn4)CC3)cc12
i	>57	CC(C)NC(=O)CCCn1c(=S)[nH]c2cc3c(cc2c1=O)OCO3
i	>57	COC(=O)c1cccc(NC(=O)CSc2nc(=O)cc(N)n2-c2ccccc2)c1

# Reprinted from the part before: 2 compounds, then new ones.
TsaE inh	Bst PK mod	compound
i	>57	CC(C)NC(=O)CCCn1c(=S)[nH]c2cc3c(cc2c1=O)OCO3
i	>57	COC(=O)c1cccc(NC(=O)CSc2nc(=O)cc(N)n2-c2ccccc2)c1
i	.	O=C(Cn1ncc2c1-c1ccccc1OC2)N1CCN(Cc2ccc3c(c2)OCO3)CC1
i	>57	CCCN1CCN(C(c2cc3cc(OCC)ccc3[nH]c2=O)c2nnnn2C2CCCCC2)CC1 (configuration not stated)
i	>57	CCOc1ccccc1NC(=O)N1CCC(c2nc3ccc(C)cc3[nH]2)CC1
.	>26	CC(NC(=O)CSc1nnc(COc2ccccc2)o1)c1ccccc1 (configuration not stated)
i	.	Cc1nnc(SCCn2c(N3CCN(c4ccccc4)CC3)nc3c2c(=O)n(C)c(=O)n3C)s1
i	>57	COc1cccc(-n2c(C)nc3c(cnn3-c3ccc(C)cc3)c2=O)c1
i	>57	CCn1c(=O)cc(OCC(=O)NCc2cccnc2)c2ccccc21
i	.	NCc1nnn(Cc2ccccc2)c1N
i	>57	COc1ccc(-c2nnc(SCC(=O)Nc3ncc(C)s3)n2-c2ccccc2)cc1OC
i	.	O=C(CCCC1=NS(=O)(=O)c2ccccc2N1)N1CCN(c2ccc(Cl)cc2)CC1

# Reprinted at random: 6 compounds from above, in no set order.
TsaE inh	Bst PK mod	compound
i	.	O=C(CCCC1=NS(=O)(=O)c2ccccc2N1)N1CCN(c2ccc(Cl)cc2)CC1
i	>57	COc1ccc(-c2nnc(SCC(=O)Nc3ncc(C)s3)n2-c2ccccc2)cc1OC
i	>57	CCn1c(=O)cc(OCC(=O)NCc2cccnc2)c2ccccc21
i	.	NCc1nnn(Cc2ccccc2)c1N
i	>57	CCOc1ccccc1NC(=O)N1CCC(c2nc3ccc(C)cc3[nH]2)CC1
.	>26	CC(NC(=O)CSc1nnc(COc2ccccc2)o1)c1ccccc1 (configuration not stated)

# (continued)
TsaE inh	Bst PK mod	compound
i	>57	COCCNC(=O)c1c(N)n(-c2cccc(C)c2)c2nc3ccccc3nc12
.	>11	CCCOC(=O)CSC1=C(C#N)C(c2ccccc2OCC)C(C#N)C(=O)N1 (configuration not stated)
i	.	O=C1CCCc2c1cc(C(=O)NCCCN1CCOCC1)c(=O)n2-c1ccc(Cl)cc1
i	>57	O=C(CSc1ncc(-c2ccccc2)nn1)NCc1ccco1
i	>57	COC(=O)[C@H](C)NC(=O)Nc1ccc(OC)cc1OC
i	.	CCOC(=O)c1[nH]c(C)c(C(=O)NC(C)CC)c1C (configuration not stated)
i	>57	CN1CCN(C(=O)CC23CC4CC(CC(C4)C2)C3)CC1
i	>57	Cc1cccc(Cn2cnc3c(nnn3Cc3ccc(F)cc3)c2=O)c1
i	>57	CCC1(CC)NC(=O)NC1=O
i	>57	CCOC(=O)Cn1cnc2c(nnn2Cc2ccc(Cl)cc2)c1=O
i	>57	Brc1ccc(CSc2nnc(-c3cnccn3)n2Cc2ccco2)cc1
i	>57	CC(Oc1ccc(-c2ccccc2)cc1)C(=O)N1CCOCC1 (configuration not stated)
i	>57	Cc1ccc(OCC(=O)Nc2ccc(N(C)C)cc2)cc1
i	>57	COC(=O)c1[nH]c2cccc(C)c2c1NC(=O)CN1CCN(C(=O)c2ccco2)CC1
i	>57	CCCCN(CC)CCCNC(=O)Cn1nc(Cc2ccncc2)c2ccccc2c1=O
i	.	c1ccc(C(c2ccccc2)N2CCCC3(CCNCC3)C2)cc1
i	.	Cc1nc(Nc2nc3ccccc3o2)nc2c1CCC2
i	>57	CCOC(=O)c1ccc(NC(=O)Cn2nnc(-c3ccc(C)cc3)n2)cc1
i	>57	Cc1oc(-c2ccc(Cl)cc2)nc1CN1CCCC(C(=O)NCCCN2CCOCC2)C1 (configuration not stated)
i	>57	COC(=O)c1ccccc1N=C(SC)N(C)C
i	>57	CCCN1C(=O)c2ccc(C(=O)Nc3nccs3)cc2C1=O
i	>57	O=C(NCCN1CCCCC1)c1cc2ccccc2[nH]1
i	.	COc1ccc(C(=O)CSc2n[nH]c(-c3ccco3)n2)cc1
i	>57	CC(C)(C)n1nnnc1CN1CCN(C2CCCC2)CC1
.	>26	CC(NC(=O)NCCCn1ccnc1)(C(F)(F)F)C(F)(F)F
i	.	Cn1c(C(=O)N2CCN(Cc3ccc4c(c3)OCO4)CC2)cc2c(=O)n(C)c3ccccc3c21
i	>11	CCC(=O)n1nc(-c2ccco2)nc1SCc1ccccc1
.	>26	COc1ccc(N2CCN(c3nc4c(c(=O)[nH]c(=O)n4C)n3CCCc3ccccc3)CC2)cc1
i	>57	CN(C)c1ccnc(NCc2ccccc2)c1C#N
i	>57	O=C(Nc1nnc(COc2ccc(Cl)cc2)s1)C1CCCO1 (configuration not stated)
i	.	O=C(CCN1C(=O)c2ccccc2C1=O)Nc1ccc(F)cc1
i	>57	COC(=O)Nc1sc2c(c1C(=O)NCc1ccco1)CCCC2
i	.	O=C(Nc1ccccc1)[C@@]12C[C@@H]1/C(=N/O)c1ccccc1O2
i	.	O=C(CSCc1ccccc1)N1CCN(c2ccc(F)cc2)CC1
i	>57	O=C(C1CCC1)N1CCc2cc(S(=O)(=O)Nc3ccc4c(c3)OCCO4)ccc21
i	>57	Cc1ccc2nc(NCCCNC(=O)c3cnccn3)c(C#N)cc2c1
i	.	N#CCCn1c(=O)c(-c2ccc(Cl)cc2)nc2cnc(Oc3ccccc3)nc21
i	>57	Cc1ccc(S(=O)(=O)N2CCC(C(=O)Nc3nnc(C4CCCC4)s3)CC2)cc1
i	.	Cn1c(=O)oc2cc(S(=O)(=O)N3CCC(C(=O)NCC4COc5ccccc5O4)CC3)ccc21 (configuration not stated)
i	>57	CCN(CC)C(=O)C1CC(=O)OC1(C)C (configuration not stated)
i	>57	O=C1CCCC2=C1C(c1c(Cl)nc3sccn13)C1=C(CCCC1=O)N2
i	>57	O=C(NC1CCCC1)C(c1cccs1)N(Cc1ccco1)C(=O)c1csnn1 (configuration not stated)
i	.	CCCCOCCOCCOCCCC
i	>57	COc1cccc(N=C2SC(C(=O)Nc3ccccc3F)CC(=O)N2C)c1 (configuration not stated)
i	.	CN(CCNC(=O)C1CC(=O)N(C2CCCC2)C1)Cc1ccccc1 (configuration not stated)
i	>57	CC(C)C(OC(=O)CN1C(=O)COc2ccccc21)C(=O)NC1CCCC1 (configuration not stated)
i	.	CCn1ccc(C(=O)Nc2ccc(Cl)cn2)n1
i	>57	O=C(COc1ccc(S(=O)(=O)N2CCOCC2)cc1)Nc1ccc(Cl)c(C(F)(F)F)c1
i	>57	O=C(c1ccccc1F)N1CCc2ccccc21
i	>57	Cc1cccc2cc(C(c3nnnn3CC3CCCO3)N3CCc4ccccc4C3)c(=O)[nH]c12 (configuration not stated)

# The list goes on.
TsaE inh	Bst PK mod	compound
i	>57	CCN(CC)CCOC(=O)c1c(C)oc2ccc(O)cc12
i	>57	O=C(OCc1ccccc1)C1CCCN1C(=O)c1cccs1 (configuration not stated)
i	>57	Cc1cc(NC(=O)c2ccc(NC(=O)C(C)Oc3ccccc3)cc2)no1 (configuration not stated)
i	>57	O=C(CSc1nc2nc[nH]c2c(=O)[nH]1)NC1CCCCC1
.	8.3*	C=CCOc1nc(-c2ccncc2)nc2ccccc12
i	.	O=C(Nc1cccnc1)Nc1ccc(F)c(Cl)c1
i	>57	COc1ccc(-c2ccc(-c3nnc(-c4ccncc4)o3)cc2)cc1
i	>57	COC(=O)C(CC(=O)c1ccc(Br)cc1)n1ccnc1 (configuration not stated)
i	>57	Cn1nnnc1SCC(=O)c1ccco1
i	.	NS(=O)(=O)c1cc(C(=O)O)c(O)c2ccccc12
i	.	CS(=O)(=O)Nc1c(O)ccc2c1CCC[C@H]2C1=NCCN1
i	>57	O=C(CN1C(=O)COc2ccccc21)c1cccc(Cl)c1
i	>57	COc1ccccc1CNC(=O)C1CCCN(S(=O)(=O)c2c(C)[nH]c(=O)[nH]c2=O)C1 (configuration not stated)

# Only part of the results is shown; rates above refer to the full screens.
